Screening results: PubChem BioAssay, several laboratories
GALR2 agonist: activates the human galanin receptor 2 | GALR2-expressing cells, agonist activation read-out | activation, %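 (tested at 5 µM)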 | 140,000 compounds, 0.48% hits | AID 803;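 active means above mean plus 3 SD of all compounds, about 5% in these data, not always enough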;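 further: 0% = vehicle buffer wells and 100% = reference agonist at full effect; tested in CHO reporter cells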
Target sequence (O43603 whole entry, looked up): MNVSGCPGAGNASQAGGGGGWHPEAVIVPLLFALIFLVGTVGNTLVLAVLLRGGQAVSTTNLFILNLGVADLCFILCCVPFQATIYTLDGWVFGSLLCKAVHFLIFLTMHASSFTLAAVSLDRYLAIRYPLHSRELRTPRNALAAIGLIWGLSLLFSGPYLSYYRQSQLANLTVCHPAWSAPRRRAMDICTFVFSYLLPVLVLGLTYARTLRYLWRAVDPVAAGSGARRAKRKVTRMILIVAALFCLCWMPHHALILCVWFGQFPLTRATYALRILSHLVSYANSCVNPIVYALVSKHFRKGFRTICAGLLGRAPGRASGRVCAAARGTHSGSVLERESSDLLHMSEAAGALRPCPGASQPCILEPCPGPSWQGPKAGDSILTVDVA
PKD1 kinase inh: blocks activity of human protein kinase D1; PKD1 kinase fluorescence polarization assay; inhibition, %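 (about 10 µM by stock and volumes)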; 200,000 compounds, 0.056% hits; Q15139; AID 797;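 active means inhibition of 50% or more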;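 further: controls were vehicle for no effect and a reference inhibitor for full effect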
RGS16-Gao: modulates binding between human RGS16 and Galphao. O15492+P09471. bead-based flow cytometry RGS16-Galphao binding, fluorescence; actives lie on both sides. binding response (% of control), % at 10 µM. 220,000 compounds, 0.38% hits;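 active means below 25% or above 175%, edge rows of some plates excepted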;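 further: Galphao activated by GDP with aluminum fluoride before binding; 100% = wells without compound and 0% = beads without RGS; some results beyond the cut were filed as inactive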
Target sequence (O15492 whole entry, looked up): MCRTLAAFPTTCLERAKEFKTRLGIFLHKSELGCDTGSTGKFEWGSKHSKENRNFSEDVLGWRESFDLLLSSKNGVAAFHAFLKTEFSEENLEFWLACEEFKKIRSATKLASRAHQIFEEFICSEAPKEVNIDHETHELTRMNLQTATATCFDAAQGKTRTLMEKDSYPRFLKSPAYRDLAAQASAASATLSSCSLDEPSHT
Target sequence (P09471 whole entry, looked up): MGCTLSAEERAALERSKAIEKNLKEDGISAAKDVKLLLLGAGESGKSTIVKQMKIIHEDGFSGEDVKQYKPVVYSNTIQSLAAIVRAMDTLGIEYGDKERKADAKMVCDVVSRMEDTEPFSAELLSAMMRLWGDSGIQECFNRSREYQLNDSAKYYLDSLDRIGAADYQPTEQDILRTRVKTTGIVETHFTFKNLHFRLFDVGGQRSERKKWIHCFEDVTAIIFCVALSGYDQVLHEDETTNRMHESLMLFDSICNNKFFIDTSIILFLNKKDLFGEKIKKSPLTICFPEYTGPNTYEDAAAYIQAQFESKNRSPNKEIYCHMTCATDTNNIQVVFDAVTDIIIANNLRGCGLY
HSV augment: HSV replication enhancement. AID 1956. HSV replication augmentation in cells, fold increase. maximum fold increase. 220,000 compounds, 0.005% hits;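 active means peak rise of 1.5-fold or more in the series; inconclusive means self-fluorescent or not available for retest; tested in PC3 cells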;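 further: first round at 10 µM; read as green reporter fluorescence; hits show the peak of a series up to 25 µM; 1 = signal of infected wells without compound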
Insulin prom inh: TRM-6 insulin promoter activity inhibition. 130,000 compounds, 0.9% hits. TRM-6 cells (human fetal islet line), insulin promoter-eGFP reporter, imaging; reporter expression induced with tamoxifen. inhibition, % at 2 µM. AID 1273;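 active means inhibition above the mean plus 3 SD, with well images judged a real hit on visual review, cut at about 60% in these data, passing the limit was not always enough; inconclusive means inhibition over the cutoff but images rejected on review; inactive means inhibition not above the cutoff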
Insulin prom inh cell count: further read-out of Insulin prom inh, marked with its call; normalized cell count, %; measured here: cell count, toxicity; reference of the scale not given here;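 cells exposed to compound for 48 h; stained nuclei by imaging scaled within each plate; lower means fewer cells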
HSV augment primary fold: second read-out of HSV augment, no call of its own (marks repeat the call); fold increase; compound at 10 µM; measured here: primary screen fold increase 10 uM; tested in PC3 cells;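 GFP signal in the first replicate; 1 = infected wells without compound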
* marks the source's active call; other numbers are inactive results; i = inactive; ? = inconclusive; . = not tested or not shown.

| entry | molecule | GALR2 agonist | PKD1 kinase inh | RGS16-Gao | HSV augment | HSV augment primary fold | Insulin prom inh | Insulin prom inh cell count |
| --- | --- | --- | --- | --- | --- | --- | --- | --- |
| 1 | O=C(NCc1ccco1)c1ccc(S(=O)(=O)N2CCCCC2)cc1 | . | 2.6 | 115.6 | i | 1.08 | -25.9 | 38.9 |
| 2 | O=C(c1ccc(Cl)cc1)c1c[nH]c(C(=O)NNc2ccccc2)c1 | . | -2.1 | 100.5 | i | 1.17 | 42.1 | 110.7 |
| 3 | COc1ccc(OC)c(C2C(C#N)=C(N)Oc3cc(C)n(Cc4ccccn4)c(=O)c32)c1 (configuration not stated) | -1.1 | -10.0 | 101.5 | i | 0.88 | . | . |
| 4 | COC(=O)c1ccccc1OCCCOc1ccc(C=O)cc1OC | -3.5 | 0.3 | 99.3 | i | 1.01 | 42.3 | 134.5 |
| 5 | C[n+]1cnc(-c2ccccc2)cc1-c1ccccc1 | -1.1 | 6.1 | 101.5 | i | 0.99 | -33.3 | 72.4 |
| 6 | O=C(c1ccc(-c2ccccc2)cc1)N1CCN(c2nc3ccccc3o2)CC1 | . | -5.0 | 105.8 | i | 0.95 | . | . |
| 7 | O=C(NCCc1cccs1)c1cccs1 | . | -4.1 | 100.0 | i | 1 | -8.3 | 53.4 |
| 8 | Clc1ccc2[nH]c3c(N4CCC5(CC4)OCCO5)ncnc3c2c1 | -0.2 | -5.5 | 122.2 | i | 0.6 | -15.4 | 72.7 |
| 9 | COc1ccc(NC(=O)COC(=O)c2ccc(Cl)c(S(N)(=O)=O)c2)c([N+](=O)[O-])c1 | . | . | 107.0 | i | 1.09 | . | . |
| 10 | CCCn1nc(C(=O)NCc2ccccn2)c2ccccc2c1=O | -2.0 | -12.7 | 106.4 | i | 1.06 | . | . |
| 11 | Cc1nc2ccccc2n1CCc1ccccc1 | . | -3.2 | 102.2 | i | 1.02 | . | . |
| 12 | COCc1ccc(CN2CCCC(CO)(Cc3ccccc3C)C2)o1 (configuration not stated) | . | -2.4 | 193.6 | i | 1.01 | -12.5 | 88.9 |
| 13 | O=C(CSc1nc2ccccc2o1)Nc1ccc(N2CCOCC2)cc1 | -0.9 | 10.1 | 100.4 | i | 0.85 | 0.0 | 83.8 |
| 14 | COc1ccccc1C1CCN(Cc2cccc([N+](=O)[O-])c2)CC1 | . | . | 99.9 | i | 0.86 | . | . |
| 15 | CN1CCN(C(=S)SCc2nc(N)nc(Nc3ccc(F)cc3)n2)CC1 | . | -2.1 | 95.3 | i | 0.87 | . | . |
| 16 | O=C1NC(=O)/C(=C/c2ccccn2)S1 | . | . | 100.2 | i | 1.04 | . | . |
| 17 | CCN(CC)C(=O)CSc1nc2ccccc2c(=O)n1OC | -0.8 | 0.9 | 102.0 | i | 0.96 | . | . |
| 18 | COCCn1c(SCC(=O)Nc2ccc(F)cc2)nc2c(oc3ccccc32)c1=O | . | -3.7 | 108.7 | i | 0.84 | 57.1 | 92.1 |
| 19 | COc1ccc2nc(SCC(=O)N3CC(=O)Nc4ccccc43)c(C#N)cc2c1 | 0.9 | 1.5 | 94.2 | i | 0.83 | 22.9 | 78.5 |
| 20 | CC1=NN(c2ccccc2)C(=O)/C1=C\c1ccc(Br)s1 | -1.1 | -5.9 | 148.0 | i | 1.03 | . | . |
| 21 | Cc1cc(-c2ccccc2)nc2[n+]1CCN2C | -2.2 | -5.0 | 105.3 | i | 0.88 | . | . |
| 22 | Cc1ccc(S(=O)(=O)CCC(=O)OCn2nnc3ccccc3c2=O)cc1 | . | -2.9 | 82.9 | i | 0.94 | . | . |
| 23 | Cc1ccc(C)c(S(=O)(=O)NC(CCC(N)=O)C(=O)O)c1 (configuration not stated) | -4.5 | -8.4 | . | i | 0.96 | 30.8 | 125.4 |
| 24 | c1ccc(Cc2noc(CN3CCCC(CN4CCOCC4)C3)n2)cc1 (configuration not stated) | . | -0.3 | 101.2 | i | 0.92 | . | . |
| 25 | Cn1c(N)c(C(=O)COC(=O)[C@H](Cc2ccccc2)N2C(=O)c3ccccc3C2=O)c(=O)n(C)c1=O | 1.9 | -3.3 | 101.9 | i | 0.89 | 30.0 | 103.3 |
| 26 | COc1ccc(NC(=O)c2nc[nH]c2C(=O)N[C@@H](C)C(=O)OC(C)(C)C)cc1 | . | . | 125.9 | i | 0.79 | . | . |
| 27 | COc1ccc(CN(C(=O)c2cnccn2)C(C(=O)NC(C)(C)C)c2cc(OC)c(OC)c(OC)c2)cc1 (configuration not stated) | -1.5 | -11.1 | 107.5 | i | 1 | -5.6 | 46.6 |
| 28 | NS(=O)(=O)c1cccc(NC(=O)c2cccnc2Oc2ccccc2)c1 | . | . | 103.4 | i | 0.99 | . | . |
| 29 | O=C(CN1CCN(c2nc(-c3ccc(F)cc3)cs2)CC1)Nc1ccc2c(c1)OCO2 | 4.2 | -5.0 | 95.5 | i | 0.97 | . | . |
| 30 | Fc1ccccc1SCc1nnc(-c2ccccc2Br)o1 | . | 0.9 | 87.0 | i | 0.84 | . | . |
| 31 | CC(=O)NC(C)CCc1ccccc1 (configuration not stated) | . | . | 101.3 | i | 0.94 | . | . |
| 32 | COc1ccc(CNC(=O)COC(=O)CCOc2ccccc2)cc1 | -0.8 | -5.8 | 98.7 | i | 0.91 | 28.9 | 150.1 |
| 33 | CC(C)NC(=S)N/N=C1\CCCCc2ccccc21 | 0.1 | -9.2 | 103.0 | i | 1.03 | . | . |
| 34 | Cc1csc2c(=O)[nH]cnc12 | . | -0.2 | 97.2 | i | 1.04 | . | . |
| 35 | CSc1nc2ccc(S(N)(=O)=O)cc2s1 | -1.1 | -4.6 | 49.2 | i | 0.65 | . | . |
| 36 | O=C(CCNS(=O)(=O)c1ccc(Cl)cc1)NCc1ccccn1 | -0.4 | -7.5 | 108.8 | i | 1.06 | 23.7 | 66.7 |
| 37 | Cc1ccc(NC(=O)CSc2nnc(-c3ccccn3)n2C)cc1 | -1.9 | -5.3 | 99.5 | i | 1.13 | 65.5 | 113.8 |
| 38 | C/C=C/C(=O)Nc1cccc(C2=NOC3(C2)C[C@@H](C(N)=O)N(C(=O)/C(C)=C/C)C3)c1 (some centres not stated) | . | . | 101.1 | i | 0.98 | . | . |
| 39 | O=C(NCC(c1cccnc1)N1CCN(c2ccc(F)cc2)CC1)c1ccccc1 (configuration not stated) | -3.6 | -3.8 | 108.1 | i | 0.94 | -78.6 | 55.0 |
| 40 | CCOc1ccc(-n2c(SCc3nc(-c4cccs4)no3)nnc2-c2ccncc2)cc1 | -2.8 | 3.9 | 87.6 | i | 0.84 | 62.1 | 125.0 |
| 41 | Cc1onc(-c2ccccc2Cl)c1C(=O)Nc1nnc(C(C)C)s1 | 0.2 | 10.8 | 106.6 | i | 0.92 | . | . |
| 42 | COc1ccc(/C=C2\CC/C(=C\c3ccc(OC)cc3OC)C2=O)c(OC)c1 | . | -2.0 | 100.0 | ? | . | i | 110.3 |
| 43 | Cc1cnc(C(=O)OCC(=O)Nc2oc(-c3ccccc3)c(-c3ccccc3)c2C#N)cn1 | -3.0 | -7.9 | 111.7 | i | 0.92 | 50.0 | 99.8 |
| 44 | COc1ccc(NC(=O)Nc2ccc3c(c2)N(C)C(=O)CS3)cc1OC | -1.9 | -6.2 | 101.2 | i | 0.93 | . | . |
| 45 | O=[N+]([O-])c1ccccc1S(=O)(=O)NCCC1=CCCCC1 | -2.1 | -2.7 | 100.6 | . | . | -65.7 | 156.2 |
| 46 | CC(C)NC(=O)COC(=O)C1CSC2(c3ccc(Br)cc3)CCC(=O)N12 (configuration not stated) | . | -3.8 | 98.8 | i | 0.98 | . | . |
| 47 | CC(=O)Nc1nnc(SCc2cccc(F)c2)s1 | . | 0.6 | 102.1 | . | . | . | . |
| 48 | CN1/C(=C\C(=O)COC(=O)CNC(=O)c2ccc3ccccc3c2)C(C)(C)c2ccccc21 | 0.2 | 1.0 | 108.6 | i | 1.05 | 13.3 | 145.3 |
| 49 | CSc1ccccc1NC(=O)c1ccc(Cl)s1 | -3.6 | -7.5 | 96.9 | i | 1.09 | 0.0 | 143.1 |
| 50 | CCCCCCCCNC(=O)c1ccc(C)cc1 | . | -9.2 | 102.7 | i | 0.94 | . | . |
| 51 | O=C(Oc1cccc(NC(=O)c2ccccc2Cl)c1)c1ccc([N+](=O)[O-])cc1 | -2.0 | -10.5 | 102.0 | i | 0.98 | 6.7 | 108.8 |
| 52 | N=c1c(C(=O)NC2CCCC2)cc2c(=O)n3ccccc3nc2n1CCN1CCOCC1 | 3.0 | -1.6 | 104.6 | i | 1.11 | 14.3 | 114.6 |
| 53 | O=c1c2cnn(-c3ccccc3)c2nc(-c2cccs2)n1-c1ccc(Br)cc1 | -0.4 | -3.7 | 97.5 | i | 0.94 | 35.0 | 127.6 |
| 54 | Cc1ccc(OCCCN2C(=O)C(=O)c3cccc(C)c32)cc1 | -2.3 | -3.8 | 100.7 | i | 1.03 | 16.7 | 158.6 |
| 55 | CC(=O)c1ccccc1OCCn1nnc(-c2ccc(C)cc2)n1 | -2.1 | -3.9 | 99.2 | i | 0.89 | -9.3 | 47.1 |
| 56 | Cc1csc2nc(CNS(=O)(=O)c3ccc4c(c3)OCCO4)cn12 | -2.1 | -6.4 | 106.3 | i | 0.95 | . | . |
| 57 | Cc1ccc2c(=O)[nH]c(Nc3nc(C)cc(-c4ccccc4)n3)nc2c1 | . | . | 100.3 | i | 0.8 | . | . |
| 58 | O=S(=O)(N1CCCCCC1)N1CCN(S(=O)(=O)N2CCOCC2)CC1 | -3.1 | 4.4 | 106.7 | i | 0.97 | -312.5 | 76.8 |
| 59 | CC(C)Sc1nc2c(c(=O)[nH]c(=O)n2C)n1Cc1ccc(Cl)cc1 | 0.0 | -0.3 | 98.7 | i | 0.85 | -55.6 | 51.4 |
| 60 | CCN=C1SC(C(=O)Nc2ccc(OC)cc2)CC(=O)N1CC (configuration not stated) | . | 0.1 | 101.9 | i | 1 | . | . |

5 entries from above in a different format.
Each structure is followed by: GALR2 agonist, PKD1 kinase inh, RGS16-Gao, HSV augment, HSV augment primary fold, Insulin prom inh, Insulin prom inh cell count
(35) CSc1nc2ccc(S(N)(=O)=O)cc2s1
    -1.1, -4.6, 49.2, i, 0.65, ., .
(36) O=C(CCNS(=O)(=O)c1ccc(Cl)cc1)NCc1ccccn1
    -0.4, -7.5, 108.8, i, 1.06, 23.7, 66.7
(37) Cc1ccc(NC(=O)CSc2nnc(-c3ccccn3)n2C)cc1
    -1.9, -5.3, 99.5, i, 1.13, 65.5, 113.8
(38) C/C=C/C(=O)Nc1cccc(C2=NOC3(C2)C[C@@H](C(N)=O)N(C(=O)/C(C)=C/C)C3)c1 (some centres not stated)
    ., ., 101.1, i, 0.98, ., .
(39) O=C(NCC(c1cccnc1)N1CCN(c2ccc(F)cc2)CC1)c1ccccc1 (configuration not stated)
    -3.6, -3.8, 108.1, i, 0.94, -78.6, 55.0

Additional records:
| entry | molecule | GALR2 agonist | PKD1 kinase inh | RGS16-Gao | HSV augment | HSV augment primary fold | Insulin prom inh | Insulin prom inh cell count |
| --- | --- | --- | --- | --- | --- | --- | --- | --- |
| 61 | c1ccc(OCCOCCN2CCc3ccccc3C2)cc1 | -1.2 | -15.0 | 104.3 | i | 1.12 | 17.9 | 95.3 |
| 62 | COc1ccc(C(=O)CSc2nn3c(=O)c(C(C)(C)C)nnc3s2)cc1 | -1.1 | 3.3 | 101.9 | i | 0.94 | . | . |
| 63 | Cc1cc(C)cc(N(CCC(=O)O)S(=O)(=O)c2ccc(Cl)cc2)c1 | 0.8 | 2.2 | 105.6 | i | 0.95 | . | . |
| 64 | Cc1ccc2[nH]c(=O)c(CN(CCCN(C)C)C(=O)Nc3cccc(Cl)c3)cc2c1 | 2.3 | 3.6 | 104.8 | i | 0.84 | . | . |
| 65 | O=C(Nc1ccc(F)cc1)N1CCN(c2ccc3nnc(-c4ccc(F)cc4)n3n2)CC1 | -0.6 | 2.8 | 106.5 | i | 0.68 | . | . |

Along the list, from the results shown:
Entries 6 to 13 in HSV augment primary fold, in turn: 0.95, 1, 0.6, 1.09, 1.06, 1.02, 1.01, 0.85
